Menin MLL FP FL: qHTS Assay for Inhibitors Targeting the Menin-MLL Interaction in MLL Related Leukemias: Competition With Fluorescein Labeled MLL-derived Peptide; Fluorescence polarization, fluorescein-MLL peptide displacement from menin; FP activity change, % at 61.4 µM; 290,000 tested, under 10 active; AID 1766, 2009; inconclusive = falling polarisation curve, or a change in total fluorescence; inactive = total fluorescence flat and polarisation flat or rising; no compound was filed as active; the % refers to the polarisation; negative = inhibition;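 also: % of control where 0% means no effect; inhibitors lower the polarisation; unlabelled MLL peptide was the positive control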
PINK1 expr mod: A Quantitative High throughput Screen to Identify Chemical Modulators of PINK1 Expression | PINK1 immunofluorescence, high-content cytometry, 24 h | 0.2% of 410,000 active | Potency, µM (doses to about 76.6 µM), inactives show top-dose activation (PINK1 increase), most hits filed as activators | AID 624263, 2012; active = well fitted activation curve with a large enough effect; inconclusive = small, poorly fitted or top-dose-only effect; inactive = flat fitted curve, though single readings scatter; cell line not stated here;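 also: potency is read from the fitted curve at half-maximal effect; % of control where 0% means no effect; nearly all actives have a fitted effect of over 65% in size; a mitochondrial uncoupler was the plate control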
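PINK1 protein, normally rapidly degraded, was detected by immunofluorescence after 24 hour compound treatment of a stable cell line. Titration data (5 concentrations) came from laser-scanning cytometry, with CCCP-treated wells as controls.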
Sfp inh: qHTS Assay for Inhibitors of Bacillus subtilis Sfp phosphopantetheinyl transferase (PPTase). 4'-phosphopantetheinyl transferase ffp (Bacillus subtilis), Q9F4F7. Biochemical Sfp PPTase activity, qHTS. Potency, µM, for inactives: max response, negative = inhibition, most hits filed as inhibitors. 3.5% of 310,000 active. AID 1490, 2009; active = well fitted inhibition curve with a large enough effect; inconclusive = small, poorly fitted or top-dose-only effect, or another doubt; inactive = no such curve, though single readings can be large or run the other way;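 also: the enzyme is Sfp with the accession as filed and its product quenches rhodamine fluorescence; potency is read from the fitted curve at half-maximal effect; 0% = enzyme reaction without inhibitor and -100% = no enzyme wells; top concentration of the series not given in the record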
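Reaction rates are the 30-min fluorescence difference (ex 525, em 598 nm) in wells containing 15 nM Sfp, 5 uM rhodamine-CoA and 12.5 uM BHQ-2-YbbR at pH 7.6 with 10 mM MgCl2.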
TRPML1 ag: qHTS for Agonists of the Human Mucolipin Transient Receptor Potential 1 (TRPML1); activation, % (test concentration not listed); TRPML1-expressing cells, Ca2+ dye fluorescence, FDSS; host cell line not named in the record; reference of the full effect not given here; 0.12% of 410,000 active; in the data active = activation above about 50%; inconclusive = about 30% to 50%; inactive = below about 30%; also: 0% is about no effect; the text of the record puts the active cut at 80%
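Tet-induced TRPML1-DL cells, 1,500 per well, cultured overnight, were loaded with a no-wash Ca2+ dye for 45–90 min. Calcium fluorescence was recorded on the FDSS for 110 s after compound addition, before the EC80 agonist (4 uM 54-4) was added.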
ClpP mod: qHTS Assay for Activators of ClpP. 1.9% of 340,000 active. purified B. subtilis ClpP, FRET peptide cleavage, 20 min. Potency, µM (series often up to 57.5 µM), without a hit: top-dose activity change, negative = active; active = well fitted falling curve with a large enough effect; inconclusive = small, poorly fitted or top-dose-only effect; inactive = no such curve, though single readings can be large or run the other way; also: potency is read from the fitted curve at half-maximal effect; the source files actives as falling curves though it sought activators and does not explain the sign; nearly all actives have a fitted effect of over 65% in size; many hits overshoot -100%
Target sequence (P80244 whole entry, looked up): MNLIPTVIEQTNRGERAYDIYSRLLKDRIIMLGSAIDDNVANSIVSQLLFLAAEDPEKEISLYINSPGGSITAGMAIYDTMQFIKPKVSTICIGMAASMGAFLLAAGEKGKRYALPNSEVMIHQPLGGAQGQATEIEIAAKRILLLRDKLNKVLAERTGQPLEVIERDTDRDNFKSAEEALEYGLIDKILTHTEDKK
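Purified B. subtilis ClpP, 10 microg/mL final in Tris/HCl pH8 with KCl, BSA, glycerol and Tween-20, cleaved an Abz/nitrotyrosine-quenched decapeptide. Fluorescence (ex 320, em 430) was read at 0 and 20 min at room temperature. Delta was normalized to 5.8 microM ADEP and DMSO/no-enzyme controls.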
TRPV1 potentiator: HTS Assay for Compounds that Act as Potentiators of the Vanilloid Receptor 1. Transient receptor potential cation channel subfamily V member 1 (Homo sapiens), Q8NER1. TRPV1-expressing cells, Fluo-8 calcium influx, capsaicin EC20 potentiation; host cell line not named in the record; control for the full effect not named in the record. potentiation, % at 8.33 µM. 0.02% of 320,000 active. AID 540277, 2011; active means potentiation above 80%; inconclusive means 30% to 80%; inactive means below 30%; also: 0% is about no effect
Target sequence (Q8NER1 whole entry, looked up): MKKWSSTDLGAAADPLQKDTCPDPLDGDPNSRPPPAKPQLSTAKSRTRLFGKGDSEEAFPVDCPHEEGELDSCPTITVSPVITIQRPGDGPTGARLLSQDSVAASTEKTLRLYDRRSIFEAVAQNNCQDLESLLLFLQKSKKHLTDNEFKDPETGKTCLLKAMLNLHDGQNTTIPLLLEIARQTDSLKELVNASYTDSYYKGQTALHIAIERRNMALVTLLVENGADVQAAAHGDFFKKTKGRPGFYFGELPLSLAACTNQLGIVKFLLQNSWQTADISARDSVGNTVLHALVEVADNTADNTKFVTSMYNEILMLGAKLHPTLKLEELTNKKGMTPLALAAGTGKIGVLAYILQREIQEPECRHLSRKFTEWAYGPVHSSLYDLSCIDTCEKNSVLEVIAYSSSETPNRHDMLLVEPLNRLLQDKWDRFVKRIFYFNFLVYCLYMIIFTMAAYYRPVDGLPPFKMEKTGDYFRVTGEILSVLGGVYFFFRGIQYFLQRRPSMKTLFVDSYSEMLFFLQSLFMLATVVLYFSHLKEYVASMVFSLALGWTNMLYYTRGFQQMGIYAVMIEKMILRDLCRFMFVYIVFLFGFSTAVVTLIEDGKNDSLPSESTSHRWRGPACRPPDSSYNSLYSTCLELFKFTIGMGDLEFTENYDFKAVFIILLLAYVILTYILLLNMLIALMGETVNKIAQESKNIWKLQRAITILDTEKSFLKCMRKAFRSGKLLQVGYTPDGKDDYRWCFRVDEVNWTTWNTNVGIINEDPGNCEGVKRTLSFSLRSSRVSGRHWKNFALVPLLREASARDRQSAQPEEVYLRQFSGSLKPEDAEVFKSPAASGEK
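Fluo-8 calcium influx in TRPV1-expressing cells, kinetic read (ex 480/em 520 nm). Compound added and read 3 min for agonist activity, followed by capsaicin at EC20 final and 2 min further read for enhancement.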
TRPML1 blocker: qHTS for Inhibitors of the Human Mucolipin Transient Receptor Potential 1 (TRPML1) | Mucolipin-1 (Homo sapiens), Q9GZU1 | TRPML1-inducible cells, Ca2+ dye fluorescence, FDSS; active compounds read low; inhibition of EC80 agonist-evoked calcium signal | activity change, negative = inhibition, % (concentration not given with the values) | 0.02% of 390,000 active; in the data active means activity change below about -50%; inconclusive means about -30% to -50%; inactive means above about -30%;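 also: stimulus is agonist 54-4 at its EC80 concentration; % is scaled to controls: 0 for no effect and ±100 for the full control effect; the text of the record puts the active cut at -80%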
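Tet-induced TRPML1-DL cells loaded with Ca8 no-wash calcium dye were read kinetically on FDSS. Compound addition was followed by EC80 agonist 54-4 (4 uM final); inhibition was read over 110 s.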
The depositor's hits bear a star; u = inconclusive; x = not tested or not shown; & = joins results of further samples; [ ] = dose if it differs, or a comment.

No.	structure	Menin MLL FP FL	PINK1 expr mod	Sfp inh	TRPML1 ag	ClpP mod	TRPV1 potentiator	TRPML1 blocker
1	CCOC(=O)c1c(C)[nH]c(C)c1S(=O)(=O)N1CCC(C(=O)N2CCN(c3ccc(Cl)cc3)CC2)CC1	x	1.1%	x	-0.8	-0.4%	x	u
2	N#Cc1c(NC(=O)CN2CCCCC2)sc2c1CCC2	u	-2.1%	-26%	1.3	-1.2%	-18	9
3	Cc1ccc(S(=O)(=O)CC(=O)Nc2ccc(S(=O)(=O)Nc3ccccn3)cc2)cc1	-5.8	3.4%	10%	-0.5	-20%	2	2
4	O=C(CSc1nnc(COc2ccccc2)n1Cc1ccco1)Nc1ccc2c(c1)OCCO2	-1.8	1.9%[38.3 µM]	6%	5.9	-1.9%	6	22
5	Cc1cc[n+](CC2OCc3ccccc3CO2)cc1	-2.8	0.8%	4%	-0.6	0.8%	3	4
6	Cn1c(SCC(=O)C(C)(C)C)nnc1-c1ccncc1	-0.1	5.7%[38.3 µM]	19%	0.8	1.3%	9	-5
7	CCOC(=O)C1CCCN(C(=O)Cn2nc(CC)n3c(cc4sccc43)c2=O)C1 (configuration not stated)	1.4	1.0%	5%	0.1	-19%	x	-11
8	COC(=O)c1ccccc1NC(=O)C1CC(=O)N(c2ccc(C)c(C)c2)C1 (configuration not stated)	5.6	3.1%	-2%	0.0	-4.7%	-14	10
9	O=C(NCc1ccccc1C(F)(F)F)c1cccc2c1C(=O)c1ccc(N3CCCCC3)cc1S2(=O)=O	x	u	x	5.4	0.3%	x	7
10	CN(C(=O)CSc1nnc(Nc2ccccc2)s1)c1c(N)n(Cc2ccccc2)c(=O)[nH]c1=O	4.1	-1.0%	u	-0.8	0.3%	6	-6
11	CSCCC(NC(=O)c1ccccc1Cl)C(=O)Nc1cccc(S(=O)(=O)N2CCCC2)c1 (configuration not stated)	x	-1.0%	x	0.2	-5.5%	3	-8
12	CCCSc1nnc(NC(=O)Nc2ccc(C)cc2)s1	-2.9	2.6%	-7%	1.0	x	6	14
13	CN(C)C=NC(=O)c1cc(C(=O)c2ccccc2)c[nH]1	-0.6	-1.4%	-21%	0.0	x	7	2
14	O=C(Nc1ccc2c(c1)OCO2)NC1CCN(Cc2ccccc2)CC1	0.2	1.6%[38.3 µM]	14%	1.2	-0.8%	-9	30
15	Brc1ccc(-c2nnc(-c3ccco3)o2)cc1	-0.6	0.0%	-5%	2.8	37%	-10	15
16	COc1ccc(CCC(=O)Nc2ccc(Cl)c(S(=O)(=O)N3CCCC3)c2)cc1	4.2	4.5%	8%	x	-2.3%	-8	x
17	O=C(O)c1ncn(Cc2ccc(Br)cc2)c1C(=O)O	-0.5	4.9%	50µM*	0.9	x	-1	-6
18	Cc1cc(C(=O)N2CCN(c3ccccc3)CC2)c2c(C)nn(-c3cccc(F)c3)c2n1	x	-0.1%	x	0.0	-4.2%	x	7
19	Cc1ccccc1N=C(N)Nc1ccccc1C	u	0.2%	41%&3%[activator]	1.8	-0.2%	1	-14
20	Cc1ccc(S(=O)(=O)c2c(C)cc(C)nc2Oc2cccc(C)c2C)cc1	0.9	2.5%	-4%	1.6	-2.9%	1	25
21	CC(C)(C)C1CCc2onc(C(=O)NCc3ccc(F)cc3)c2C1 (configuration not stated)	6.2	9.5%	11%	-0.5	0.5%	-22	3
22	Cc1ccccc1NC(=O)Cc1nc(COC(=O)CSc2ccccc2)cs1	x	1.7%	6%	0.9	-6.4%	15	10
23	CCOc1ccc(Oc2ccc(C(F)(F)F)cc2NC(=O)C2=COCCO2)cc1	x	0.3%	x	-1.2	-2.8%	24	10
24	Cc1ccc(C)c(NC(=O)CC2Sc3ccccc3NC2=O)c1 (configuration not stated)	x	u	x	1.2	-0.2%	x	0
25	CCCC(=O)Nc1c(C(=O)N2CCN(c3ccccc3)CC2)oc2ccccc12	x	0.3%	x	0.1	-0.5%	x	-5
26	O=C(Cc1cccs1)NCCN1CCOCC1	0.9	1.0%	-13%	1.1	2.4%	-9	8
27	COc1ccc(-c2cc(C3C4C=CCC(C)C4C(=O)N3Cc3ccccc3)ccc2F)cc1 (configuration not stated)	3.6	x	-19%	2.3	x	x	74
28	Cc1ccc(C)c(S(=O)(=O)N2CCCOC2CNC(=O)C(=O)NCc2ccccc2)c1 (configuration not stated)	x	3.0%	10%	-0.3	-2.8%	1	6
29	COc1ccc(CN(C)CC(=O)Nc2cccc3ccccc23)cc1F	5.2	0.7%	2%	3.3	x	-7	-4
30	CCOc1ccccc1NC(=O)N1CCCC(c2nc(-c3ccc(C)o3)no2)C1 (configuration not stated)	-0.6	-0.1%	24%	5.8	1.4%	-2	-3
31	O=C(NNS(=O)(=O)c1ccc2ccccc2c1)C1CCN(Cc2ccccc2)CC1	2.2	-0.6%	8%	3.2	-1.9%	x	2
32	CCN1CCN(C(c2cccnc2)c2c(NC(=O)c3ccco3)sc(C)c2C)CC1 (configuration not stated)	x	1.2%	x	3.2	-1.7%	-6	28
33	O=C(NCCCn1ccnc1)/C(=C/c1cccs1)NC(=O)c1ccco1	3.1	-0.9%	7%	1.0	0.6%	0	33
34	COc1ccc(OC)c(NC(=O)c2ccc3c(c2)c(C)c(C)n3Cc2ccc(F)cc2)c1	x	-0.1%	x	3.8	22µM*	x	52
35	O=S(=O)(c1ccc(Cl)cc1)N1CCN(C(=S)Nc2ccccc2F)CC1	4.3	3.4%	11%	-0.3	1.5%	15	14
36	COc1nc(Oc2ccc(=O)n(C)n2)nc(N(C)C)n1	0.7	-0.4%	0%	-0.3	0.1%	-7	34
37	CCN1CCN(c2ccc(S(=O)(=O)N3CCCCC3)cc2NC(=O)/C=C/c2ccc([N+](=O)[O-])cc2)CC1	x	1.1%	x	0.4	x	-2	1
38	Fc1ccc(Nc2nc(N3CCOCC3)c3ccccc3n2)cc1	5.4	6.3%	-7%	-1.4	60%	3	-5
39	Cn1c(NCCO)nc2c1c(=O)n(Cc1ccccc1Cl)c(=O)n2C	x	0.8%	x	-0.7	-0.8%	x	18
40	CCOC(=O)C1=C(C)NC(SCC(N)=O)=C(C#N)C1c1cccs1 (configuration not stated)	1.0	3.9%	-7%	-0.2	-30%	8	-8
41	Cc1cc(C)nc(N2C(=O)CC(C(=O)O)NC2=NCCc2c[nH]c3ccccc23)n1 (configuration not stated)	2.1	-1.3%	23%	0.8	1.4%	10	8
42	CCOC(=O)Cc1nc(-c2cccc(C(F)(F)F)c2)no1	2.0	0.4%	16%	0.8	x	-11	-7
43	Cc1ccc(N(C)C(=O)Cn2nc(Cc3ccncc3)c3ccccc3c2=O)cc1C	x	0.5%	x	-0.3	-1.5%	x	-2
44	O=C(Nc1ccc(S(=O)(=O)NC2=NCCCCC2)cc1)c1cccc(S(=O)(=O)N2CCOCC2)c1	x	1.8%	x	0.0	2.0%	x	-16
45	CCCCCCN1C[C@@H](O)[C@H](n2cc(-c3ccc(F)cc3)nn2)C[C@@H]1c1ccccc1	x	-1.0%	x	-0.1	-0.8%	x	-25
46	COc1cc(Cn2nnc3ccccc32)ccc1O	-3.2	-0.2%	0%	0.4	-0.3%	2	6
47	CCOC(=O)Nc1ccc2c(c1)N(C(=O)CCN1CCOCC1)c1ccccc1S2=O (configuration not stated)	2.8	0.6%	-4%	-0.5	-0.1%	4	-9
48	Nc1nc(NC(=O)c2ccco2)nn1-c1ccccc1	-0.2	5.9%[38.3 µM]	0%	0.3	-1.4%	3	-5
49	O=C(NC1CCCC1)C1c2ccccc2OCC(=O)N1CC(F)(F)F (configuration not stated)	x	1.2%	x	0.2	-3.6%	x	x
50	Cc1ccc(S(=O)(=O)NC(=O)Cn2nnc(-c3ccccc3)c2COc2ccc3ccccc3c2)cc1	x	0.2%	x	-0.7	5.6%	x	x
51	Cc1ccc(Cl)cc1N1CCN(C(=O)CNC(=O)c2ccc(Br)o2)CC1	x	1.1%	x	2.9	1.5%	-17	26
52	C/C(=N\Nc1ccc2nncn2n1)c1ccco1	3.3	-0.7%	-4%	-0.6	-2.0%	-7	0
53	NC(=O)Cc1cn(-c2ncc(C(F)(F)F)cc2Cl)c2ccccc12	1.0	-3.2%	9%	-0.6	1.3%	5	5
54	Cc1ccc(NC(=O)Nc2cccs2)nc1	4.0	-3.4%	u	-0.5	1.8%	1	-8
55	O=C(Nc1ccc(OCCO)cc1)c1csc([C@H]2C[C@H](O)[C@@H](CO)O2)n1	x	1.6%	x	0.1	-13%	x	x
56	CN(C1CCCCC1)S(=O)(=O)c1ccc(NC(=O)c2ccc(Br)o2)cc1	5.1	4.9%	5%	1.3	-3.4%	7	-23
57	CN1C[C@@H](CO)O[C@@H](n2cnc3c(N4CCOCC4)ncnc32)C1	x	0.5%	x	-0.4	-1.2%	x	x
58	CCN(CC)CC#CCC(O)(c1ccccc1)c1ccccc1	2.1	-1.3%	1%	-0.1	-1.9%	-18	25
59	CNC(=O)CSc1nnc(NC(=O)C2CC(=O)N(c3ccccc3OC)C2)s1 (configuration not stated)	x	0.7%	50µM*	-0.3	1.9%	-36	8
60	COc1ccc(/C=N/Nc2nnc(Cc3ccc(OC)c(OC)c3)c(=O)[nH]2)cc1OC	-2.6	12%	50µM*	1.8	-8.6%	8	4
61	Nc1nc(SCC(=O)Nc2c(Br)cc([N+](=O)[O-])cc2Br)n[nH]1	x	1.4%	9%	-0.6	-0.6%	-3	-2
62	CCCCOC(=O)Oc1ccc2c(=O)c(Oc3cc(C)cc(C)c3)coc2c1	4.2	-1.5%	-20%	3.5	5.6%	-21	-5
63	COc1cc(C2NC(=O)C(C#N)=C(S)N2c2ccc(C)cc2)ccc1OC(C)C (configuration not stated)	0.1	0.6%	u	-0.9	-2.5%	16	-2
